Source: PubChem (several laboratories)
ugtP null kill: growth inhibition of ugtP-null S. aureus, primary screen, RN4220 ugtP deletion, OD600; 16 h; some inactives read as strong as hits; growth inhibition, % (concentration not given with the values); hit rate 0.54% among 330,000; AID 1259309, 2017;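 active means z-score under -3 and OD600 up to 0.15 on both plates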;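 further: plate controls were untreated wells for no effect and antibiotic for full effect; wells of about 80 µL received 100 nL stock; the first replicate is given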
PrP 5UTR inh: inhibition of PrP 5' UTR reporter expression | inhibition, % (concentration not given with the values) | cell-based PrP 5' UTR mRNA reporter, plate reader | hit rate 0.35% among 340,000;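 active means every replicate at 50% or more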;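 further: 0 = median of the neutral control wells; tested in H4 reporter cells; numbers are from one replicate; inactives centre near -14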
Mtb hypoxia rep: PubChem AID 1159583 | M. tuberculosis hypoxia-regulated fluorescent reporter, fluorescence | fluorescence inhibition, % (concentration not given with the values) | hit rate 0.1% among 300,000;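 active means 35 to 45% if threefold the growth effect, above 45% if 1.5-fold the growth effect; inactive means the rest, general growth blockers included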;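 further: wells of about 50 µL received 100 nL stock; 0% = vehicle wells and 100% = reference inhibitor wells; whole bacteria with a GFP reporter of the hypoxia response; strong numbers were not always called active; many hits fall short of the cut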
Bead autofluor: counter-screen for toxin protease inhibitors: compound fluorescence; compound autofluorescence counterscreen, microsphere flow cytometry; active compounds read high; fluorescence intensity (no concentration beside the values); hit rate 3.1% among 360,000;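 active means at least 3 SD above the mean of all compounds, about 16000 in these data; inconclusive means too few beads counted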;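 further: 100 nL of 1 mM stock went into each well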
BJeLR viability: MLPCN primary cell-based screen for lethality selective to Ras in HRASV12 cells | BJeLR (HRASV12) viability, CellTiter-Glo ATP luminescence, 48 h; reference of the scale not given here | inhibition, % (no concentration beside the values) | hit rate 0.17% among 300,000 | AID 1554, 2009;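 active means replicate mean above 50%; inconclusive means above 50% but judged a plate artefact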;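 further: 50 nL library stock added to about 25 µL; numbers are from one replicate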
Sa RN4220 lethal: growth inhibition of S. aureus RN4220, primary screen, OD600 | 16 h | inhibition, % (test concentration not listed) | hit rate 0.33% among 330,000 | AID 1259311, 2017;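 active means z-score of -3 or lower and OD600 up to 0.18 on both plates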;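 further: plate controls were untreated cells for no effect and reference antibiotic for full effect; stock transfer was 100 nL into about 80 µL; one replicate is shown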
Mtb hypoxia rep growth: further read-out of Mtb hypoxia rep, marked with its call; growth inhibition, %; measured here: M. tuberculosis growth (absorbance);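 0% = vehicle and 100% = reference antibiotic; read after six days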
* hit, by the source's call; ? = inconclusive; . = no result given.

SMILES	ugtP null kill	PrP 5UTR inh	Mtb hypoxia rep	Mtb hypoxia rep growth	Bead autofluor	BJeLR viability	Sa RN4220 lethal
O=C1[C@H]2CCC=C[C@H]2[C@H](c2cccc(Br)c2)N1Cc1ccccc1	13	-11	6	1	2919	.	-3.5
COc1ccc(-n2nc3c(c2NC(=O)C2CC2)CS(=O)C3)cc1 (centres undefined)	5	-4	.	.	3502	-6	-0.1
O=C(N/C(=C/c1ccco1)C(=O)N1CCCCC1)c1cccs1	5	-2	8	6	9758	1	2.6
CCC(C)c1ccccc1OCCCNC1CCCC1 (centres undefined)	-2	-9	13	16	3757	11	-0.6
COCCCNC(=O)c1cccs1	6	-6	.	.	4712	0	3.4
CC(C)NC(=O)Cn1c(=O)c2c(ncn2Cc2ccccc2)n(Cc2ccccc2)c1=O	3	-20	4	6	11259	-1	4.5
CCOC(=O)C1(Cc2ccccc2)CCCN(C(=O)c2cn[nH]c2)C1 (centres undefined)	1	-11	-3	1	5821	7	3.8
C=CCOc1ccc(/C=C/C(=O)OCC(=O)NC2CCCCCCC2)cc1	8	-29	9	4	4218	-6	-1.8
CC(C)c1ccccc1NC(=O)c1ccccc1NC(=O)C1CCCCC1	-9	-17	3	-2	2595	-7	-0.4
C[C@H](NC(=O)OCc1ccccc1)C(=O)NNC(=O)[C@H](C)NC(=O)OCc1ccccc1	.	-43	.	.	4363	0	.
CCOC(=O)C1CCC/C1=N\NC(=O)CN(c1cc(OC)ccc1OC)S(=O)(=O)c1ccccc1 (centres undefined)	.	-37	.	.	5052	9	.
Cc1ccc(Cn2c(=O)c3c(nc4n3CCCN4Cc3ccccc3)n(C)c2=O)cc1	0	-18	.	.	4750	2	-2.3
CCCn1c(C(=O)c2ccc(OC)cc2)nc2ccccc21	7	-6	-8	3	5090	-5	24
Cc1ccc(S(=O)(=O)N2CCOC2CNC(=O)C(=O)NCCN2CCOCC2)cc1 (centres undefined)	.	-18	.	.	5331	-16	.
O=C(NCc1cccnc1)c1ccc(=O)oc1	-10	-58	15	7	9547	4	5.9
CCC(=O)Nc1cccc(NC(=O)CSc2nc3c(c(=O)n(C)c(=O)n3C)n2C)c1	0	-11	-6	-1	5292	2	2.4
CCOC(=O)c1c(NCC(C)C)c2ccccc2[nH]c1=O	-7	-1	20	7	3055	-10	10
O=C(COc1ccc2c(-c3ccccc3)cc(=O)oc2c1)NCCCN1CCOCC1	10	-14	6	-4	5664	3	0.1
CCCc1nc(SCC(=O)c2ccccc2)c2c(=O)n(C)c(=O)n(C)c2n1	-2	-23	17	10	5926	-7	-4.8
O=C1NC(=O)C(c2cn(-c3ccccc3)nc2-c2ccc(F)cc2)N1 (centres undefined)	-1	-3	.	.	4935	11	-5.0
COc1ccc(C(=O)O)cc1S(=O)(=O)N(CCc1ccccc1)Cc1ccccc1	6	-16	3	14	4600	-3	7.2
COc1ccc(C(=O)NCC(=O)N/N=C(C)\C=C\c2ccccc2)cc1OC	.	1	.	.	5261	2	.
CC(C)(NO)/C(=N\O)c1ccccc1	.	-10	.	.	2703	2	.
Cc1ccc(S(=O)(=O)N/N=C/C(C)(C)CO)cc1	.	-19	.	.	2543	5	.
COC(=O)c1ccccc1OCCN1CCCCCC1	7	-17	1	-1	2662	1	1.5

Whole records, looked up by structure.
CCC(=O)Nc1cccc(NC(=O)CSc2nc3c(c(=O)n(C)c(=O)n3C)n2C)c1 as listed: ugtP null kill: 0; PrP 5UTR inh: -11; Mtb hypoxia rep: -6; Mtb hypoxia rep growth: -1; Bead autofluor: 5292; BJeLR viability: 2; Sa RN4220 lethal: 2.4
CCCc1nc(SCC(=O)c2ccccc2)c2c(=O)n(C)c(=O)n(C)c2n1 as listed: ugtP null kill: -2; PrP 5UTR inh: -23; Mtb hypoxia rep: 17; Mtb hypoxia rep growth: 10; Bead autofluor: 5926; BJeLR viability: -7; Sa RN4220 lethal: -4.8

Sorted by count of non-hydrogen atoms (largest number first): some entries from above.
SMILES	ugtP null kill	PrP 5UTR inh	Mtb hypoxia rep	Mtb hypoxia rep growth	Bead autofluor	BJeLR viability	Sa RN4220 lethal
Cc1ccc(Cn2c(=O)c3c(nc4n3CCCN4Cc3ccccc3)n(C)c2=O)cc1	0	-18	.	.	4750	2	-2.3
COc1ccc(C(=O)O)cc1S(=O)(=O)N(CCc1ccccc1)Cc1ccccc1	6	-16	3	14	4600	-3	7.2
O=C1[C@H]2CCC=C[C@H]2[C@H](c2cccc(Br)c2)N1Cc1ccccc1	13	-11	6	1	2919	.	-3.5
O=C(N/C(=C/c1ccco1)C(=O)N1CCCCC1)c1cccs1	5	-2	8	6	9758	1	2.6
CCC(C)c1ccccc1OCCCNC1CCCC1 (centres undefined)	-2	-9	13	16	3757	11	-0.6
O=C(NCc1cccnc1)c1ccc(=O)oc1	-10	-58	15	7	9547	4	5.9

Following part.
SMILES	ugtP null kill	PrP 5UTR inh	Mtb hypoxia rep	Mtb hypoxia rep growth	Bead autofluor	BJeLR viability	Sa RN4220 lethal
N=c1c(S(=O)(=O)c2ccc(Br)cc2)cc2c(=O)n3ccccc3nc2n1C1CCCC1	-20	11	19	11	5224	-5	3.3
CCCS(=O)(=O)NCc1ccc2c(c1)cc(C)n2C	-2	0	-10	2	?	-3	0.4
CCOc1c(P(=S)(N(C)C)N(C)C)c(C)nn1-c1ccccc1	0	-2	3	9	2976	3	-0.8
O=C(NCCc1cn2ccsc2n1)c1cccs1	-8	9	-5	-6	4897	-4	-11
CCN(CC)C(=O)Cn1cc(S(=O)(=O)CC(=O)Nc2cc(C)on2)c2ccccc21	6	-27	5	-3	5462	2	1.5
Cc1cc(C)cc(Oc2coc3cc(OC(=O)c4cccs4)ccc3c2=O)c1	28	-12	20	23	3450	5	1.5
CS(=O)(=O)N1CCC(c2noc(-c3ccc(C(F)(F)F)cc3)n2)CC1	1	-6	14	10	2569	11	5.2
O=C(N/N=C/c1cccc(F)c1)c1csc2c1CCCC2	.	-64	.	.	2524	-2	.
COCc1cc(=O)oc2cc(NS(=O)(=O)c3ccc(C)cc3)ccc12	6	.	11	10	.	7	3.9
Cc1cccc(-c2noc(CN(C(=O)CCc3ccccc3)C(C)C)n2)c1	21	-27	9	-4	7248	-1	9.0
COc1ccc(CCNC(=S)Nc2cc(C)cc(C)c2)cc1	24	-25	.	.	2762	-3	-1.2
CN(C)c1ccc(/C=N/NC(=O)c2ccc(CN3CCOCC3)cc2)cc1Br	.	-4	.	.	3929	8	.
Brc1ccc(C[n+]2ccccc2)cc1	-2	-25	-3	-1	3348	-5	2.8
CCOC(=O)C(=O)NC(C)CCc1ccccc1 (centres undefined)	5	-11	13	7	2082	-5	1.7
COc1ccccc1C(=O)NCC(=O)N/N=C/c1cc(Br)ccc1OC(=O)/C=C\c1ccco1	.	6	.	.	2231	7	.
Cc1ccc(-c2nc3sc(C(N)=O)c(N)c3c3c2CCCC3)cc1	-5	8	8	6	2663	-18	7.6
CCCCN(C)C(=O)c1cn(CC)c2nc(C)ccc2c1=O	9	-21	3	7	8167	-3	5.2
CC1OC(Nc2cccc3ccccc23)C(O)C(O)C1O (centres undefined)	-8	-7	4	14	7067	-2	-0.1

Rows are unselected; 3.9% or so of the library scored in one or more.
